MT1-MMP act inh – blockers of MT1-MMP proenzyme processing, primary screen, HT1080 RFP-PRO-GFP cells, GFP/RFP fluorescence | Matrix metalloproteinase-14 (Homo sapiens), P50281 | GFP/RFP ratio fluorescence, overnight; percent of plate control window, DMSO zero | GFP/RFP ratio change, % at 20 µM | hit rate 0.061% among 360,000;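 active = GFP/RFP ratio change of at least 30% with cell ATP level not reduced by more than half and red fluorescence within 50% of control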; also: strong numbers were not always called active
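Read-out: GFP/RFP fluorescence ratio; Test system: RFP-PRO-GFP reporter HT1080 cells; Compound dosing: single-point 20 µM compound, 1% DMSO; Times: overnight compound exposure at 37 °C.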
Yeast UUG start – modulators of yeast start codon fidelity, primary screen, whole organism, S. cerevisiae, single point, plate reader | AID 602363, 2012 | S. cerevisiae UUG-firefly luciferase reporter, luminescence/redox ratio | activity score, % at 18.7 µM | hit rate 0.13% among 350,000;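 active = replicate mean at a twofold rise or more, about +100% in these data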;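 also: firefly luciferase made from a UUG start codon reports start codon fidelity; reporter light over untreated wells divided by growth signal over untreated wells; some hits fall short of that in this replicate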
eIF4H inh – human eIF4H binding inhibitors, primary screen, translation initiation inhibitor project, biochemical, uHTS, fluorescence polarization. AID 2012, 2009. Eukaryotic translation initiation factor 4H (Homo sapiens), Q15056. inhibition, % at 35 µM. eIF4H fluorescence polarization binding assay. hit rate 0.94% among 290,000;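 active = 50% or more with normal probe brightness, or confirmed in later tests; inconclusive = above 50% with abnormal brightness, or retests that disagree; inactive = below 50% or failed in later tests; about a fifth of its hits are not listed in these tables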;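 also: calls also rest on retests at 20 µM and on dose response follow-up; 0% = protein and probe with vehicle and 100% = probe without protein; strong numbers were not always called active; many hits fall short of the cut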
Env fusion inh – inhibitors of HIV-1 Env-driven cell-cell fusion, primary screen, HeLa-JRFL effector, CEM21 target cells, luciferase; inhibition, % at 12.3 µM; hit rate 1.1% among 360,000; AID 651610, 2012;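 active = mean replicate inhibition score of at least 50 and every replicate individually at or above 50; inconclusive = only one of the two criteria met; inactive = mean below 50 and not all replicates reaching 50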;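 also: 0% = plate neutral controls and 100% = maraviroc near 300 nM; one replicate is shown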
Rce1 inh – yeast Rce1p protease inhibitors, primary screen, biochemical, fluorescence, cell-free homogeneous | yeast membranes, quenched prenylated peptide cleavage fluorescence | hit rate 0.27% among 290,000 | CAAX prenyl protease 2 (Saccharomyces cerevisiae (strain ATCC 204508 / S288c)), Q03530 | calls only | AID 2563, 2010;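 active = fall in fluorescence gain of 50% or more versus controls, with final raw signal at or below 3038400; inconclusive = same 50% fall but final raw signal above 3038400; inactive = fall in fluorescence gain under 50%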;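 also: plate controls were neutral control wells for no effect and wells lacking membranes for full effect; tested at 10 µM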
Target sequence (Q03530 whole entry, looked up): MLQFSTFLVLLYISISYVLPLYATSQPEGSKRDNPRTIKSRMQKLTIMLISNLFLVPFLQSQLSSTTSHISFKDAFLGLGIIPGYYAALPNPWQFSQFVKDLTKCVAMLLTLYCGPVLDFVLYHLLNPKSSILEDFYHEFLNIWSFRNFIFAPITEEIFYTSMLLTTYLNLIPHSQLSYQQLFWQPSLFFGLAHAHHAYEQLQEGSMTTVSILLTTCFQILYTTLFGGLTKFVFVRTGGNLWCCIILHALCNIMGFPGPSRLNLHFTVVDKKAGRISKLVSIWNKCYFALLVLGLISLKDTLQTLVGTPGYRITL
CSC inhib – cancer stem cell viability inhibitors, primary screen, luminescence | cancer stem cell-like cells viability | inhibition, % at 7.5 µM | hit rate 1.1% among 300,000;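 active = mean at 75% or more and at least half the replicates too; inconclusive = mean and replicates disagree; tested in HMLE shEcad cells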;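 also: 0% = median of negative and 100% = median of positive control wells; the first replicate is given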
PABP FP inh – PABP poly(A) RNA binding inhibitors, primary screen, biochemical, fluorescence polarization, uHTS; AID 2014, 2009; Polyadenylate-binding protein 1 (Homo sapiens), P11940; hit rate 1% among 290,000; inhibition, % at 35 µM;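 active = 50% or more with normal probe brightness, or confirmed in later tests; inconclusive = above 50% with abnormal brightness, or retests that disagree; inactive = below 50% or failed in later tests; about a fifth of its hits are not listed in these tables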;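 also: calls also rest on retests at 20 µM and on dose response follow-up; controls were probe without protein and protein plus probe with vehicle; some compounds called inactive have numbers as strong as hits; many hits fall short of the cut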
PABP FP inh retest – recorded beside PABP FP inh, whose call it bears; inhibition, %; compound at 20 µM; confirmation repeats;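 mean of two retest wells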
MT1-MMP act inh RFP – further read-out of MT1-MMP act inh, marked with its call; RFP signal change, %; measured here: RFP expression control read;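 0 = vehicle wells; hits needed this value within 50% of zero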
* marks the source's active call; other numbers are inactive results; i = inactive; ? = inconclusive; · = no result given. Not a hit list. About 3% of those tested had a hit in this group.

SMILES	MT1-MMP act inh	MT1-MMP act inh RFP	Yeast UUG start	eIF4H inh	Env fusion inh	Rce1 inh	CSC inhib	PABP FP inh	others
CCN1C(=O)N(CC)C(O)(c2ccccc2)C1(O)c1ccccc1 (stereo unspecified)	0	4	16	-9	·	i	22	-1
Cc1ccc2c(c1)c(-c1csc(N)n1)c(C)n2C	28	26	-4	4	26	i	·	19
CCn1c(Cc2ccc(OC)cc2)nnc1SCC(=O)N1CCN(c2ccccc2)CC1	11	-5	-18	2	59	i	-1	2
C#CCOCCOCCOCCNc1nc(N2CCOCC2)nc(N2CCN(C(=O)[C@H](Cc3cc4ccccc4[nH]3)n3cc([C@@H](N)CC(C)C)nn3)CC2)n1	-3	3	11	1	·	i	-14	-1
CSc1ccc(N=Nc2c(C)[nH]n(C)c2=O)cc1	8	8	·	-12	-42	i	-5	-15
COc1ccc(C(=O)c2ccccc2O)c(O)c1	-2	2	-37	·	·	·	-2	·
CCOC(=O)N1CCN(C(=O)C2CCN(c3nnc(-n4cccc4)s3)CC2)CC1	1	-2	14	-8	10	i	·	-1
O=C(CSc1nnc(Nc2ccccc2)s1)Nc1cccc(S(=O)(=O)N2CCCCC2)c1	-9	-8	-1	-10	12	i	23	-2
N#CCC(=O)c1sccc1-n1cccc1	-27	5	-20	39	0	i	·	-5
CN=C(c1ccccc1)c1c(C)cccc1C	3	0	·	-5	·	i	8	5
O=C(O)c1ccc(N2CCCCC2)cc1	-1	3	-17	10	-50	i	-7	2
Cc1c(C(=O)NCC2COc3ccccc3O2)oc2ccc(S(=O)(=O)N3CC(C)CC(C)C3)cc12 (stereo unspecified)	-2	-11	·	5	·	i	30	-4
O=C(CCNS(=O)(=O)c1ccc(Cl)cc1)N1CCN(c2ncccn2)CC1	3	1	-11	·	-5	·	·	·
COc1cccc(C(=O)C2CCCN(Cc3cccc(-n4nc(C)cc4C)c3)C2)c1 (stereo unspecified)	-3	-2	·	-8	3	i	3	4
Cc1ccc(-c2noc(CSc3nnc(CCc4ccccc4)n3-c3ccccc3)n2)cc1	-7	-9	·	3	·	·	21	-17
CCN1CCN(S(=O)(=O)c2ccc(OC)c(NC(=O)c3ccccc3)c2)CC1	5	4	-17	-9	5	i	-3	-2
COc1ccc(-c2cc(C(F)(F)F)n3nc(C(=O)N(C)Cc4ccccc4)cc3n2)cc1OC	0	-11	·	2	26	i	11	-2
O=C(NC1CCCCCC1)C1c2ccccc2C(=O)N1C1CC1 (stereo unspecified)	0	-3	-1	6	·	i	-7	4
O=C(Nn1c(=O)[nH]c2ccccc2c1=O)c1ccco1	4	11	-7	-4	17	i	·	-8
O=C(NC1CCCCC1)c1cc(-c2ccc(Cl)cc2)on1	2	4	-17	-5	6	i	-14	0
N/C(=N\OC(=O)c1ccc2ccccc2c1)c1cccc([N+](=O)[O-])c1	1	3	-25	-6	-24	i	-10	-13
CC(C)[C@H](NC(=O)Nc1ccc(S(N)(=O)=O)cc1)C(=O)O	7	0	-2	-3	-59	i	-8	2
CN1C(=O)C(CC#N)(C2(CC#N)C(=O)N(C)c3ccccc32)c2ccccc21 (stereo unspecified)	-2	2	-19	·	-10	·	·	·
CCn1ccnc1CN1CCC(n2nccc2NC(=O)c2ccccc2OC)CC1	0	1	-8	-6	-30	i	-4	-2
Cc1ccsc1C(=O)C1CCCN(Cc2cc(F)ccc2-n2cccn2)C1 (stereo unspecified)	4	-5	·	1	18	i	1	10
O=C(CN1C(=O)/C(=C\c2cccs2)SC1=S)Nc1cccc(C(=O)O)c1	5	0	8	-9	21	i	-9	14
CN1CCCN(C(=O)CC(c2ccccc2)c2ccccc2)CC1	0	3	·	3	-10	i	10	7
CC(/C=C/c1ccc2c(c1)OCO2)=N/NC(=O)C1COc2ccccc2O1 (stereo unspecified)	·	·	·	-4	-23	i	7	-11
C/C(=N\NC(=O)c1ccc(-n2cnnn2)cc1)c1ccc(C)cc1	2	2	-14	·	-4	·	·	·
O=C(Nc1ccc(CN2CCOCC2)cc1)c1cc2ccccn2n1	-1	-3	-64	-12	21	i	6	-23
Cc1cc(SCCC(=O)O)nc2ccccc12	-3	-1	2	-10	·	i	·	2
NC(=O)CC(NC(=O)Cc1ccc(Br)cc1)c1ccc(NCCOc2ccccc2)c([N+](=O)[O-])c1 (stereo unspecified)	8	-5	-26	-4	-8	i	3	-12
COc1ccc(CNC(=O)c2cccnc2Sc2ccc(Cl)cc2)cc1	-1	0	-6	-3	·	i	2	-5
O=C(C[n+]1cccc(Br)c1)c1ccccc1	-3	1	-28	-11	-10	i	-10	-5
COCC(=O)N/N=C\c1cccc(OC)c1OC/C=C/c1ccccc1	2	6	-15	-1	9	i	14	-7
COC(=O)CNC(=O)CN1c2cccc3cccc(c23)S1(=O)=O	4	5	-12	?	·	i	-9	58*	PABP FP inh retest=95*
COc1cc(/C=C(\C#N)C(=O)Nc2ccccc2F)ccc1OCCN1CCOCC1	-6	-3	0	4	-12	i	-7	-11
O=C(c1ccccc1[N+](=O)[O-])n1cnc2ccccc21	0	0	·	-7	11	i	-41	-5
Fc1ccc(-c2nc3c4ccccc4ccn3c2Cc2ccccc2)cc1	0	8	-22	·	-6	·	·	·
COCCN(Cc1nc(C2(c3ccc(C)cc3)CCCC2)no1)C(C)C	-2	-5	4	-2	9	i	-10	-6
Cc1ccc(Oc2cc(N3CCOCC3)nc(-c3ccccc3)n2)cc1	-6	-5	-2	1	·	·	-13	6
O=C1CC(c2cccc([N+](=O)[O-])c2)c2cc3c(cc2N1)CCC3 (stereo unspecified)	-5	-17	-6	-11	1	i	41	4
O=C(CN1CCCCC1)NCC1(c2ccccc2)CCCC1	-1	3	·	-6	-4	i	-10	2
CC1(C)CC(=O)c2cc(C(=O)NNc3ccccc3)c(=O)n(-c3ccccc3)c2C1	3	3	·	2	17	i	68	-5
Cc1nnc(SCC(=O)Nc2ccc(N3CCOCC3)cc2)o1	0	4	-16	-15	-297	i	-2	21

Filtered by structure, those above containing a cyano group.
SMILES	MT1-MMP act inh	MT1-MMP act inh RFP	Yeast UUG start	eIF4H inh	Env fusion inh	Rce1 inh	CSC inhib	PABP FP inh	others
N#CCC(=O)c1sccc1-n1cccc1	-27	5	-20	39	0	i	·	-5
CN1C(=O)C(CC#N)(C2(CC#N)C(=O)N(C)c3ccccc32)c2ccccc21 (stereo unspecified)	-2	2	-19	·	-10	·	·	·
COc1cc(/C=C(\C#N)C(=O)Nc2ccccc2F)ccc1OCCN1CCOCC1	-6	-3	0	4	-12	i	-7	-11

(list continues)
SMILES	MT1-MMP act inh	MT1-MMP act inh RFP	Yeast UUG start	eIF4H inh	Env fusion inh	Rce1 inh	CSC inhib	PABP FP inh	others
COC(=O)c1ccc(COc2ccccc2/C=N/NC(N)=O)o1	1	1	-16	1	17	i	-4	2
COc1cccc(NC(=O)Cc2ccc3ccccc3c2)c1	13	2	-1	-3	-5	i	·	8
CCOc1ccc(Cl)cc1S(=O)(=O)n1nnc2ccccc21	1	5	-11	-3	-29	i	12	5
CC(C)(C)NC(=O)C(c1ccsc1)N(CCc1ccccc1)C(=O)Cn1nnc2ccccc21 (stereo unspecified)	0	0	-8	4	·	i	·	-10
Cc1ccc(C2=NOC(C)(c3nnc(-c4ccncc4)o3)C2)cc1 (stereo unspecified)	7	-11	-14	·	16	i	-8	·
c1ccc(-c2cn3nc(-c4ccccc4)cnc3n2)cc1	3	3	·	3	-112	·	0	6
O=C(NC(=S)Nc1cccc(O)c1)C1CCCCC1	2	-1	-19	·	·	·	-8	·
Cc1ccc(C(=O)COC(=O)CCS(=O)(=O)c2ccccc2)cc1[N+](=O)[O-]	-2	-2	-16	·	0	·	-6	·
Cc1ccccc1C1C(C#N)=C(N)N(N(C)C)C2=C1C(=O)CC(C)(C)C2 (stereo unspecified)	-1	0	·	2	19	i	-8	12
COc1ccc(C(=O)NC(CC(C)C)C(=O)O)cc1OC (stereo unspecified)	2	7	-22	6	-32	i	-6	10
COCCn1c(=S)[nH]c2cc(C(=O)NC3CCCCC3C)ccc2c1=O (stereo unspecified)	6	-1	-6	·	-1	·	·	·
Cc1cccc(C(=O)N2CCCC(N3CCN(c4ccc(F)cc4)CC3)C2)n1 (stereo unspecified)	3	4	-16	-16	-5	i	13	0
O=C(COC(=O)c1cccs1)Nc1cccc(S(=O)(=O)N2CCCCC2)c1	1	-1	1	·	9	·	-12	·
COc1ccc(CN(C(=O)/C=C/c2ccco2)C2CCS(=O)(=O)C2)cc1OC (stereo unspecified)	-1	11	-3	7	0	i	-5	13
CCn1cc([N+](=O)[O-])c(C(=O)NCc2ccc3c(c2)OCO3)n1	0	-2	-11	-9	-6	·	-10	5
COCCCNC(=O)c1ccc(-n2nc(C(F)(F)F)cc2-c2cccs2)cc1	2	-9	-8	-13	9	i	-15	-8
CC(C)c1ccc(/C=C2\SC(=O)N(CC(=O)NC3C=CS(=O)(=O)C3)C2=O)cc1 (stereo unspecified)	4	-8	-13	46	-21	i	-5	-14
C=CCn1c(N)c(C(=O)NCc2cccnc2)sc1=S	3	6	-5	3	-94	i	-12	5
COC(=O)CSc1nnc(-c2sc3ccccc3c2Cl)o1	2	6	565*	-6	·	i	-2	-4
O=C(Nc1ccccc1C(=O)NCCN1CCOCC1)c1ccc(Cl)cc1Cl	0	1	-8	7	11	i	3	0
CNc1nc(Oc2ccccc2C(=O)OC)nc(SC)n1	0	3	-10	-2	-56	i	5	0
CC1CCN(C(=O)c2[nH]cnc2C(=O)N[C@@H](Cc2ccccc2)C(=O)OC(C)(C)C)CC1	-7	4	-19	-5	-3	i	-6	7
COc1cccc(NC(=O)CSc2nc3ccccc3c(=O)n2C)c1	-3	-19	1	1	0	i	-1	-7
COc1cccc(CN2CCC(C)(Oc3cccc(Cl)c3)C2)c1OC (stereo unspecified)	-2	0	-17	·	22	·	·	·
O=C(COC(=O)c1ccc2ccccc2n1)Nc1ncc(C(F)(F)F)cc1Cl	-2	3	-9	8	-23	i	·	1
COc1ccc(NC(C)=O)cc1NC(C)C(=O)Nc1ccc(S(=O)(=O)N2CCCCC2)cc1 (stereo unspecified)	1	-3	-3	·	18	·	-9	·
CC1CC(C)CN(C(=O)CN2C(=O)NC(c3ccccc3)(c3ccccc3)C2=O)C1 (stereo unspecified)	-4	-5	-24	·	·	·	-11	·
Cc1cc(=O)c2c([nH]1)c(C)cc1[nH]c(C)c(C)c12	-77	-2	9	·	·	·	-16	·
Cn1c(=N)n(CC(O)c2ccccc2)c2ccccc21 (stereo unspecified)	4	18	1	2	·	i	-2	0
COc1cccc(CN(C)C(=O)c2cc(S(=O)(=O)NC3CCCCC3)ccc2C)c1	-2	-9	2	·	10	·	-21	·
COc1cc(O)c(C(CC(=O)N2CCCC2)c2cc(OC)c(OC)c(OC)c2)c(OC)c1 (stereo unspecified)	2	0	4	-2	3	i	-1	-5
O=S(=O)(CCOc1ccccc1)c1nc2ccccc2[nH]1	-3	-2	-7	-1	-1	i	21	-9
O=C(CCC(=O)N1CCOc2ccccc21)NCCCc1ccccc1	2	0	-13	-2	-18	i	-9	5
